# NS1 inh – inhibitors of influenza NS1 protein function; S. cerevisiae slowed by influenza A NS1, growth recovery by OD600; Potency, µM (top dose mostly 46.1 µM), for inactives: top-dose activity, positive = more growth; hit rate 0.4% among 270,000; AID 2326; further: actives are rising curves; nearly all actives have a fitted effect of over 50% in size
#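 Recovery from NS1-induced slow growth read by OD600 in budding yeast switched to galactose assay medium (pH 6.0, -URA) at 1:100 dilution. Compound 23 nl per well; the matching strain lacking NS1 serves as control.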
# Cruzain Triton – blocks cruzain activity in presence of Triton detergent | purified cruzain, Z-FR-AMC fluorescence, 0.01% Triton | hit rate 0.43% among 200,000 | Potency, µM, inactives show max response, negative = inhibition, actives largely listed as inhibitors | P25779; active means well fitted curve in the direction sought with a large enough effect; inconclusive means small, poorly fitted or top-dose-only effect, or another doubt; inactive means no such curve, though single readings can be large; an effect the other way counts as inactive or inconclusive;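 further: plate controls were neutral wells for no effect and buffer without enzyme for full effect; nearly all actives have a fitted effect of over 40% in size; top concentration of the series not given in the record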
# Target sequence (P25779 123-467 limits assumed): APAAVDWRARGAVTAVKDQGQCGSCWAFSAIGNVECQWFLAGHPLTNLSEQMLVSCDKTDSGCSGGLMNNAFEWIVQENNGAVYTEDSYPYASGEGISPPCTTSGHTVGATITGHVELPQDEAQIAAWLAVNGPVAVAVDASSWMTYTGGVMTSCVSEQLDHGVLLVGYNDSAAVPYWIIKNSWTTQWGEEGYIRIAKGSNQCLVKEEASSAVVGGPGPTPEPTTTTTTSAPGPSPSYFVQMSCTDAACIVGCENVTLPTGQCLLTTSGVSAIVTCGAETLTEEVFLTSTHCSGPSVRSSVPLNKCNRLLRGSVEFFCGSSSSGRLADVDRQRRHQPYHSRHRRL
#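 Detergent-containing arm of a paired screen for aggregation-based inhibition: 0.01% Triton X-100 present. Cruzain at 1.5 nM cleaved 2 uM Z-FR-AMC at pH 5.5 with 5 mM DTT; AMC fluorescence gain over 60 s measured activity.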
# SARS PLP yeast – blocks SARS-CoV papain-like protease in a yeast assay. S. cerevisiae expressing SARS-CoV PLpro, growth rescue; control for the full effect not named in the record. Potency, µM (titrated, usually from 32.9 µM), without a hit: top-dose activity, positive = growth rescue. hit rate 0.19% among 330,000; further: 0% is about no effect; nearly all actives have a fitted effect of over 55% in size; growth read by luminescence after 48 h
# 2A StopGo – lowers the luciferase signal of an FMDV 2A StopGo reporter; human cells with a luciferase reporter of 2A StopGo recoding; control for the full effect not named in the record; Potency, µM (series often up to 57.9 µM), for the others: at the top dose signal change, negative = less light; hit rate 1.2% among 410,000; AID 1159524; active = well fitted falling curve with a large enough effect; inconclusive = small, poorly fitted or top-dose-only effect; inactive = no such curve, though single readings can be large or run the other way; tested in HEK293T cells; further: on the % scale 0 is the no-effect control and ±100 the full control effect; nearly all actives have a fitted effect of over 45% in size; luciferase light after 4 h
# RE007 growth inh – less growth of the S. pombe RE007 Vpr strain. S. pombe RE007 Vpr strain, BacTiter-Glo ATP luminescence, 24 h; control for the full effect not named in the record. Potency, µM (highest dose often 92.2 µM), inactives show at the top dose activity change, negative = less growth. hit rate 0.21% among 360,000; active = well fitted falling curve with a large enough effect; inconclusive = small, poorly fitted or top-dose-only effect; inactive = no such curve, though single readings can be large or run the other way;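 further: on the % scale 0 is the no-effect control and ±100 the full control effect; nearly all actives have a fitted effect of over 50% in size; the assay follows cell death caused by Vpr and the record does not say whether a fall means rescue or toxicity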
#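 Fission yeast RE007 carrying one integrated HIV-1 vpr copy, seeded at OD 0.01 in PMG+AL medium with 23 nL pinned compound. Grown 24 h at 30 degrees; viability read by BacTiter-Glo luminescence after 5 min.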
# Cruzain noTriton – blocks cruzain activity in detergent-free assay. P25779. purified cruzain, Z-FR-AMC fluorescence, no detergent. Potency, µM, for the others: max response, negative = inhibition, usual class: inhibitors. hit rate 2.3% among 200,000; active means well fitted curve in the direction sought with a large enough effect; inconclusive means small, poorly fitted or top-dose-only effect, or another doubt; inactive means no such curve, though single readings can be large; an effect the other way counts as inactive or inconclusive;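 further: plate controls were enzyme without inhibitor for no effect and buffer without enzyme for full effect; nearly all actives have a fitted effect of over 40% in size; top concentration of the series not given in the record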
#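 Detergent-free condition (0.00005% Triton X-100) in acetate buffer pH 5.5 with DTT. 1.5 nM enzyme and compound were pre-mixed 15 min, then 2 uM Z-FR-AMC substrate added; reaction progress from fluorescence change between first and third reads (60 s).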
# Lassa entry inh – blocks Lassa virus binding to or entry into cells; Potency, µM (doses to about 37.9 µM), without a hit: at the top dose activity change, negative = inhibition, actives largely listed as inhibitors; hit rate 1.2% among 300,000; AID 540256; Lassa virus pseudotype entry inhibition, cell reporter; control for the full effect not named in the record; active means well fitted inhibition curve with a large enough effect; inconclusive means small, poorly fitted or top-dose-only effect, or effect the other way; inactive means flat fitted curve, though single readings scatter; tested in HEK293 cells; further: on the % scale 0 is the no-effect control and ±100 the full control effect; nearly all actives have a fitted effect of over 50% in size; luciferase read-out
# Marburg entry inh – inhibitors of Marburg virus binding or cell entry | Marburg virus pseudotyped entry inhibition, cell reporter; control for the full effect not named in the record; about a third of the inactives were read at about 46 µM | Potency, µM (titrated, usually from 37.8 µM), inactives show at the highest dose activity change, negative = inhibition, actives largely listed as inhibitors | hit rate 1.8% among 300,000 | AID 540276; active = well fitted inhibition curve with a large enough effect; inconclusive = small, poorly fitted or top-dose-only effect, or effect the other way; inactive = flat fitted curve, though single readings scatter; tested in HEK293 cells; about a fifth of its hits are not listed in these tables; further: on the % scale 0 is the no-effect control and ±100 the full control effect; luciferase read-out
# * hit, by the source's call; ? = inconclusive; . = no result given; [ ] = remark or other dose. Unless noted, the call rests on the fitted dose curve; in most records, active means well fitted rising curve with a large enough effect; inconclusive means small, poorly fitted or top-dose-only effect; inactive means no such curve, though single readings can be large or run the other way. Potency means the concentration at half of the fitted maximal effect. The order is random; 4.7% or so of the library scored in one or more.
canonical_smiles,Lassa entry inh,Cruzain Triton,Marburg entry inh,2A StopGo,NS1 inh,Cruzain noTriton,SARS PLP yeast,RE007 growth inh
ON/C=N/C(=S)Nc1ncc(C(F)(F)F)cc1Cl,1%[46.1 µM],.,?,-2%,.,.,0%,-17%
Cc1ccc(NC(=O)C2C3CC4OC(=O)C2C4C3)cc1Cl (stereo unspecified),4%,3.6%,?,11%,4%,21%,-11%,16%
Cc1cc(C)n(-c2ccc(S(N)(=O)=O)cc2[N+](=O)[O-])n1,0%[46.1 µM],.,2%[46.1 µM],-1%,.,.,0%,5%
O=C(O)CCn1c(C(=O)O)cc2sccc21,6%,1.8%,-5%[46.1 µM],4%,-1%,0%,1%,6%
Cc1ccccc1Cn1c(C(=O)OC(C)C)cc2c1ccn2C,-1%,-7.5%,?,-22%,?,-7%,-15%,-5%
O=S(=O)(Nc1ccc(Cl)cn1)c1ccc(F)cc1,-5%[46.1 µM],.,-1%[46.1 µM],24%,-2%,.,-7%,8%
CCOc1c(CC2C(=O)Nc3ccc(Br)cc32)cccc1OC (stereo unspecified),3%[46.1 µM],-11%,0%[46.1 µM],-22%,.,0%,.,.
CCOC(=O)CC(NS(=O)(=O)Cc1ccccc1)c1ccc(C)cc1 (stereo unspecified),?,-2.8%,6%,-4%,-8%,-8%,15%,-5%
Cc1csc(NC(=O)CSc2ccc3nnc(-c4ccncc4)n3n2)n1,1%,.,25%,-7%,8%,.,0%,22%
COc1nc(C)nc(C)c1Oc1ccc(Cl)cc1Cl,-2%,.,?,?,-8%,.,-1%,1%
CCOC(=O)Cn1c(=NC(=O)CSC(C)=O)sc2ccccc21,.,-5.0%,.,-16%,?,-8%,-1%,-10%
COC(=O)Nc1ccc(S(=O)(=O)N2CCCc3cccc(O)c32)cc1,.,.,.,-28%,-1%,.,1%,3%
Cc1cccc(-c2nc(Cn3c(=O)cc(-c4ccccc4)c4c(C)nn(C)c43)c(C)o2)c1,-19%[46.1 µM],-0.4%,.,-20%,.,-2%,.,.
Cn1c(CSCc2ccc(Cl)c(Cl)c2)n[nH]c1=S,?,-3.1%,11%,?,7%,-1%,-4%,2%
COC(=O)c1c(C)cc(C)c2c1CC(C)(C)C2=O,9%,.,9%,-23%,3%,.,0%,-18%
Cc1ccc2[nH]c3c(c2c1)CN(C(=O)CN1CCN(c2ccccc2)CC1)CC3,.,-1.2%,1%,.,-4%,-4%,13%,.
C(=C\c1ccccc1)/CN1CCN(Cc2nc(Cc3ccccc3)no2)CC1,.,.,.,-24%,11%,.,0%,0%
O=C(Nc1ccccc1)C(=O)Nc1cccnc1,?,.,?,-4%,-2%,.,-2%,-19%
O=C(Nc1cccnc1)c1ccc(-c2cc(Cl)ccc2Cl)o1,-7%,.,-26%[46.1 µM],3%,-5%,.,-3%,-17%
O=C(O)CC12CSc3[nH]c(=O)sc3C1c1ccccc1OC2=O (stereo unspecified),.,-2.3%,.,.,-9%,-4%,0%,.
Cc1nn(-c2ccccc2)c(Oc2ccccc2)c1C=O,-10%,-3.5%,?,-22%,-22%,-3%,3%,-8%
O=C(CN(C(=O)CNS(=O)(=O)c1ccccc1)c1ccc2c(c1)OCCO2)NC1CCCCC1,8%,2.2%,15%,14%,-1%,3%,4%,21%
COc1ccc(CCN(Cc2ccc(C(C)C)cc2)S(=O)(=O)c2ccc(S(=O)(=O)N(C)C)cc2)cc1OC,-3%,1.1%,?,-11%,4%,-9%,-11%,-15%
C=CCN1C(=O)c2ccc(C(=O)N(C)CC(=O)Nc3ccccc3C(F)(F)F)cc2C1=O,1%,.,?,-20%,10%,.,4%,2%
COc1ccc(-n2nc(C(=O)Nc3ccc(C(C)=O)cc3)nc2-c2ccccc2)cc1,1%[46.1 µM],-2.4%,?,-22%,.,-12%,.,.
Cc1nn(CCC(=O)NCCc2ccccc2Cl)c(=O)c2nn(-c3ccccc3)c(C)c12,.,.,.,-14%,9%,.,19%,-2%
CN1CCC(NC(=O)c2ccncc2)CC1,9%[46.1 µM],.,9%[46.1 µM],-5%,.,.,0%,-1%
Cc1cccc(Cl)c1OCCCn1ccnc1,.,.,.,1%,6%,.,-1%,-4%
CCCc1nnc(SCC(=O)N2C(C)CCCC2C)n1CC1CCCO1 (stereo unspecified),8%,2.3%,?,11%,-8%,1%,.,4%
Nn1c(N2CCCCC2)nc2ccccc21,4%,13%,?,29%,1%,7%,-3%,-14%
CCNC(=S)N1CCN(c2nc(CC)nc3sc4c(c23)CCCC4)CC1,?,.,?,?,-86%,.,-15%,-12%
CCOCCCn1c(=S)[nH]c2cc(C(=O)NCCc3ccccc3)ccc2c1=O,.,.,.,-12%,3%,.,-2%,8%
CC(=O)c1ccc(NC(=O)CSC2=Nc3ccccc3N=C(c3ccc(F)cc3)C2)cc1,21%[46.1 µM],-1.6%,.,-12%,.,2%,.,.
COc1ccc(S(=O)(=O)N2CCN(Cc3cc(OC)c(O)c(OC)c3)CC2)cc1,.,.,.,-15%,-1%,.,5%,-13%
O=C(NCC(c1ccco1)N1CCCCC1)c1ccc(COc2ccccc2)cc1 (stereo unspecified),?,.,?,?,.,.,-4%,-18%
C=CCn1c(-c2ccc(OC)cc2)nc2nc3ccccc3nc21,1%,-1.1%,?,20%,-4%,16%,-4%,0%
Cc1cc(F)ccc1S(=O)(=O)N1CCCOC1CNC(=O)C(=O)NCc1ccccn1 (stereo unspecified),0%,.,12%,-11%,5%,.,-5%,-8%
CCOC(=O)CSc1nnc(CNC(=O)c2ccc(OC)cc2)n1-c1ccc(OC)cc1,8%,3.9%,3%,-10%,-3%,0%,3%,1%
Cc1cccc(NC(=O)/C(C#N)=C/c2ccc(C)o2)c1,9%[46.1 µM],-8.6%,.,24%,.,2%,.,.
CCN(CC)S(=O)(=O)c1ccc2nnn(OCC(=O)Nc3cccc(C#N)c3)c2c1,1%,-6.0%,-3%,?,-9%,0%,2%,-1%
CCOC(=O)C1CN(S(=O)(=O)c2cccs2)c2ccc(CC(=O)OC)cc2O1 (stereo unspecified),19%[46.1 µM],.,?,-26%,-33%,.,-2%,6%
CCCCCN1C2=NCCN2c2ccccc21,1%,-1.2%,-25%,-26%,2%,-13%,1%,-10%
Cc1cccn2c(=O)c3cc(C#N)c(=NC(=O)c4cccs4)n(CCCOC(C)C)c3nc12,?,.,-1%[46.1 µM],?,6%,.,2%,-4%
O=C(CNS(=O)(=O)c1ccc(C(=O)N2CCCCC2)cc1)N1CCCCC1,-3%,2.7%,-19%[46.1 µM],-20%,-4%,8%,2%,-9%
CCOC(=O)N1CCN(C(=O)c2ccccc2SCC(=O)NCC2CCCCC2)CC1,-22%,.,5%,-19%,.,.,-2%,-5%
CCOC(=O)C(C)Oc1ccsc1C(=O)OC (stereo unspecified),-2%,3.1%,4%,-6%,2%,6%,8%,-3%
C=Cc1c(C)/c2[n-]/c1=C\c1[n-]c(c(CC)c1C)/C=c1\[n-]c3c(c1C)C(=O)C(C(=O)[O-])C=3c1[n-]c(c(C)c1CCC(=O)[O-])\C=2.[Cu].[Na+].[Na+] (stereo unspecified),?,?,31µM*,.,.,14%,.,.
Cn1nc(C(F)(F)F)c2cc(NC(=O)OCc3ccc(C(C)(C)C)cc3)sc21,?,-8.2%,?,22µM*,2%,-18%,7%,0%
O=C(CCc1ccccc1)N=C1SC2CS(=O)(=O)CC2N1Cc1ccc(F)cc1 (stereo unspecified),.,.,.,-3%,-11%,.,0%,5%
CCN(CC)S(=O)(=O)c1ccc(C(=O)NN(C)C2=NS(=O)(=O)c3ccccc32)cc1,10%[46.1 µM],.,0%[46.1 µM],2%,-16%,.,3%,19%

# Further compounds
canonical_smiles,Lassa entry inh,Cruzain Triton,Marburg entry inh,2A StopGo,NS1 inh,Cruzain noTriton,SARS PLP yeast,RE007 growth inh
O=C1CSC(=Nc2cccc(C(=O)O)c2)N1,21%,.,?,10%,2%,.,3%,6%
CC(=O)c1cccc(Nc2c([N+](=O)[O-])c(=O)oc3ccccc23)c1,14%[46.1 µM],.,?,3%,3%,.,-4%,0%
CCN(CC(=O)Nc1ccccc1C(F)(F)F)C(=O)c1ccccc1SCC(=O)N1CCCC1,-8%,.,0%,-12%,.,.,-4%,-10%
COC(=O)c1c(C)oc2c1cc(NS(=O)(=O)c1c(C)cc(C)cc1C)c1ccccc12,?,-0.8%,?,0%,.,?,.,.
Cc1cc(Cl)ccc1OCCCC(=O)NN,-25%,.,9%[46.1 µM],-21%,.,.,-1%,0%
CCOc1cc(NC(=S)Nc2ccccc2)c(OCC)cc1NC(=O)c1ccc(OC)cc1,?,-2.8%,?,8%,?,16µM*,-11%,-4%
O=C(c1ccccc1)N1CCN=C1c1ccccc1,5%,2.9%,2%,-27%,11%,0%,-9%,-1%
CCOc1ccc(CCNC(=O)c2cc3sc(CC)cc3n2C)cc1OCC,.,-17%,-3%[46.1 µM],-26%,.,?,.,.
CC(C)CCN(C)C1CCN(S(=O)(=O)c2cccc(C(F)(F)F)c2)CC1,0%,4.8%,?,-4%,-5%,12%,-5%,-11%
O=C(Nc1nnc(-c2cccs2)s1)C1CC1,10%,.,11%,45%[activator],0%,.,6%,-5%
Cc1cccc(N/C(N)=N/c2nc(C(F)(F)F)cc(=O)[nH]2)c1C,-7%,-1.5%,5%,-18%,7%,?,16%,-1%
COc1ccccc1C(CNC(=O)c1cccc(S(=O)(=O)Nc2ccc(F)cc2)c1)N1CCCC1 (stereo unspecified),-10%,.,?,3%,.,.,.,-7%
CCC(=O)N(CCc1ccccc1)Cc1cc2ccc(OC)cc2[nH]c1=O,.,.,.,0%,-10%,.,1%,2%
